Sfp PPTase inh: qHTS Assay for Inhibitors of Bacillus subtilis Sfp phosphopantetheinyl transferase (PPTase); Potency, µM, for inactives: max response, negative = inhibition, most hits filed as inhibitors; AID 1490, 2009; 4'-phosphopantetheinyl transferase ffp (Bacillus subtilis), Q9F4F7; Biochemical Sfp PPTase activity, qHTS; 3.5% of 310,000 active; active = well fitted inhibition curve with a large enough effect; inconclusive = small, poorly fitted or top-dose-only effect, or another doubt; inactive = no such curve, though single readings can be large or run the other way;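 note: the enzyme is Sfp with the accession as filed and its product quenches rhodamine fluorescence; potency is the fitted concentration of half-maximal effect; 0% = enzyme reaction without inhibitor and -100% = no enzyme wells; top concentration of the series not given in the record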
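Reaction rates are the 30-min fluorescence difference (ex 525, em 598 nm) in wells containing 15 nM Sfp, 5 uM rhodamine-CoA and 12.5 uM BHQ-2-YbbR at pH 7.6 with 10 mM MgCl2.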
ClpP mod: qHTS Assay for Activators of ClpP; purified B. subtilis ClpP, FRET peptide cleavage, 20 min; Potency, µM (titrated, usually from 57.5 µM), without a hit: at the top dose activity change, negative = active; ATP-dependent Clp protease proteolytic subunit (Bacillus subtilis (strain 168)), P80244; 1.9% of 340,000 active; AID 651965, 2013; active = well fitted falling curve with a large enough effect; inconclusive = small, poorly fitted or top-dose-only effect; inactive = no such curve, though single readings can be large or run the other way; note: potency is the fitted concentration of half-maximal effect; the source files actives as falling curves though it sought activators and does not explain the sign; nearly all actives have a fitted effect of over 65% in size; many hits overshoot -100%
Target sequence (P80244 whole entry, looked up): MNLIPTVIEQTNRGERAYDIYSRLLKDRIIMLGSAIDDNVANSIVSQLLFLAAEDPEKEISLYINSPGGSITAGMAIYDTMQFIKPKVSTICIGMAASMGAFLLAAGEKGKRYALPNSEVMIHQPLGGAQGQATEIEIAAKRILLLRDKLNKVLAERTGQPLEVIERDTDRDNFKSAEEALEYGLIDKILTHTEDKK
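Purified B. subtilis ClpP, 10 microg/mL final in Tris/HCl pH8 with KCl, BSA, glycerol and Tween-20, cleaved an Abz/nitrotyrosine-quenched decapeptide. Fluorescence (ex 320, em 430) was read at 0 and 20 min at room temperature. Delta was normalized to 5.8 microM ADEP and DMSO/no-enzyme controls.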
PINK1 modulator: A Quantitative High throughput Screen to Identify Chemical Modulators of PINK1 Expression; PINK1 immunofluorescence, high-content cytometry, 24 h; 0.2% of 410,000 active; Potency, µM (titrated, usually from 76.6 µM), inactives show at the top dose activation (PINK1 increase), most hits filed as activators; active = well fitted activation curve with a large enough effect; inconclusive = small, poorly fitted or top-dose-only effect; inactive = flat fitted curve, though single readings scatter; cell line not stated here;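 note: potency is the fitted concentration of half-maximal effect; % of control where 0% means no effect; nearly all actives have a fitted effect of over 65% in size; a mitochondrial uncoupler was the plate control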
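A stable cell line was treated with compounds at 5 concentrations for 24 hours, with CCCP as control. PINK1 levels and mitochondrial localization were measured by immunofluorescence with mitochondrial, cell and nuclear markers after fixation, read by laser-scanning cytometry.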
TRPML1 ag: qHTS for Agonists of the Human Mucolipin Transient Receptor Potential 1 (TRPML1); Mucolipin-1 (Homo sapiens), Q9GZU1; TRPML1-expressing cells, Ca2+ dye fluorescence, FDSS; host cell line not named in the record; reference of the full effect not given here; activation, % (no concentration beside the values); 0.12% of 410,000 active; AID 624414, 2012; in the data active = activation above about 50%; inconclusive = about 30% to 50%; inactive = below about 30%; note: 0% is about no effect; the text of the record puts the active cut at 80%
Target sequence (Q9GZU1 whole entry, looked up): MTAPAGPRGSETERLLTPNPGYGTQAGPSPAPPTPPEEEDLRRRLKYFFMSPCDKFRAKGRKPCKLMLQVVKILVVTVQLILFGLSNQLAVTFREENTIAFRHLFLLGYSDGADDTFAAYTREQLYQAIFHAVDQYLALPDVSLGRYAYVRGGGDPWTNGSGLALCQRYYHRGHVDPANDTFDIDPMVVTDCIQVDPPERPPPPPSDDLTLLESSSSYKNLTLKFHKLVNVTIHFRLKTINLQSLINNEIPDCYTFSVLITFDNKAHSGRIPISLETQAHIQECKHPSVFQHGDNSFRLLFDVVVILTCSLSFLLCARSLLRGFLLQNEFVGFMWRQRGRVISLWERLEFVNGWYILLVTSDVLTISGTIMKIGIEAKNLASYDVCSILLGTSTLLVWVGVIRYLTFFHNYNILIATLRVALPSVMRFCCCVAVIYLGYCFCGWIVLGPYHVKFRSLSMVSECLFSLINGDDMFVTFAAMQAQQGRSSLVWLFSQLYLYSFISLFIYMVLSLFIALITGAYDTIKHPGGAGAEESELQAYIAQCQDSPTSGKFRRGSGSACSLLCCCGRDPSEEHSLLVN
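Kinetic FDSS Ca2+ read in Tet-induced TRPML1-DL cells (ABD Ca8 dye plus quencher, 45-90 min RT loading): baseline, then compound, then 110 s agonist window; EC80 agonist 54-4 at 4uM final added afterwards for a 110 s antagonist window.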
TRPV1 potentiator: HTS Assay for Compounds that Act as Potentiators of the Vanilloid Receptor 1; Transient receptor potential cation channel subfamily V member 1 (Homo sapiens), Q8NER1; TRPV1-expressing cells, Fluo-8 calcium influx, capsaicin EC20 potentiation; host cell line not named in the record; control for the full effect not named in the record; potentiation, % at 8.33 µM; 0.02% of 320,000 active; AID 540277, 2011; active means potentiation above 80%; inconclusive means 30% to 80%; inactive means below 30%; note: 0% is about no effect
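TRPV1-expressing cells were cultured overnight at 35.5C and loaded with Fluo-8 calcium dye for 40 to 90 min at room temperature. After a 10 s baseline, compound was added and calcium influx was read kinetically for 3 min (ex 480/em 520 nm).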
TRPML1 inh: qHTS for Inhibitors of the Human Mucolipin Transient Receptor Potential 1 (TRPML1). Mucolipin-1 (Homo sapiens), Q9GZU1. activity change, negative = inhibition, % (test concentration not listed). 0.02% of 390,000 active. TRPML1-inducible cells, Ca2+ dye fluorescence, FDSS; hits give low values; inhibition of EC80 agonist-evoked calcium signal; in the data active means activity change below about -50%; inconclusive means about -30% to -50%; inactive means above about -30%;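 note: stimulus is agonist 54-4 at its EC80 concentration; % is set by controls: 0 for no effect and ±100 for the full control effect; compound concentration not given in the record; the text of the record puts the active cut at -80%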
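TRPML1-DL cells, Tet-induced overnight (~16 h, 37 °C) at 1,500 cells/well, were loaded with Ca8 no-wash dye plus quencher for 45-90 min at room temperature. Compounds were pinned during FDSS kinetic reading; agonist 54-4 at EC80 (4 uM final) then added.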
Menin MLL FP FL: qHTS Assay for Inhibitors Targeting the Menin-MLL Interaction in MLL Related Leukemias: Competition With Fluorescein Labeled MLL-derived Peptide. 290,000 tested, under 10 active. Fluorescence polarization, fluorescein-MLL peptide displacement from menin. FP activity change, % at 61.4 µM; inconclusive = falling polarisation curve, or a change in total fluorescence; inactive = total fluorescence flat and polarisation flat or rising; no compound was filed as active; the % refers to the polarisation; negative = inhibition;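 note: % of control where 0% means no effect; inhibitors lower the polarisation; unlabelled MLL peptide was the positive control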
* = called active by the depositor; ? = inconclusive; / = no result given; [ ] = remark or other dose. This is a random part of the collection, and some 4.4% of all compounds hit somewhere here.

SMILES	Sfp PPTase inh	ClpP mod	PINK1 modulator	TRPML1 ag	TRPV1 potentiator	TRPML1 inh	Menin MLL FP FL
O=C1CCC(C(=O)NCc2ccc3c(c2)OCO3)N1 (configuration not stated)	12.2%	/	-1.7%	0.0	0.3	1.3	4.9
CN(CCOc1ccc(Cl)cc1)C(=O)CN1C(=O)NC2(CCCCC2)C1=O	/	-0.4%	1.6%	-0.6	3.5	9.9	/
C=C1CCC[C@]2(C)C[C@H]3OC(=O)C(CNC(C)(CO)CO)[C@H]3CC12 (some centres not stated)	1.5%	/	-3.5%	-0.5	4.0	5.9	-6.0
COc1ccccc1CCNC(=O)c1cccc(S(=O)(=O)NCc2ccccc2)c1	/	0.7%	3.0%	2.5	7.3	-7.3	/
COc1ccc(CNC(=O)c2ccc(NC(=O)CC3SC(N4CCCC4)=NC3=O)cc2)cc1 (configuration not stated)	3.7%	0.1%	3.4%	0.3	1.9	2.4	1.1
CC1=C(C(=O)N2CCOCC2)CC(CC(=O)NCCc2ccccn2)C(=O)N1Cc1ccc(F)cc1 (configuration not stated)	/	1.5%	3.1%	-0.8	/	6.0	/
Oc1ccccc1-c1cc(-c2ccc3c(c2)OCCO3)n[nH]1	-14.4%	-3.2%	1.3%[38.3 µM]	0.8	16.4	-11.6	-0.2
O=C(Nc1ccc(Cl)cn1)Nc1ccccc1F	7.5%	-0.6%	0.0%	-0.2	9.7	-10.1	2.7
Cc1cc(OC(C)C(=O)NCC2CCCO2)cc(C)c1Cl (configuration not stated)	-5.5%	-0.7%	-0.6%	-0.3	-10.2	-0.1	/
Cc1cc(C)c(NC(=O)CNC(=O)COC(=O)C2CCN(c3ccc(C(F)(F)F)cn3)CC2)c(C)c1	15.0%	-17.7%	-0.9%	1.0	12.3	47.3	/
CCc1cccc(CC)c1NC(=O)COC(=O)c1ccc2c(c1)S(=O)(=O)c1ccccc1C2=O	7.2%	-2.6%	1.5%	1.6	-2.6	9.4	4.2
COc1ccccc1-c1nc(SCC(=O)NCc2ccccc2)c2c(=O)n(C)c(=O)n(C)c2n1	/	-7.9%	1.6%	-0.5	/	4.5	/
Cc1ccc(C)c(NC(=O)c2sc(Cl)nc2C)c1	6.5%	0.9%	?	-0.6	-4.9	2.5	3.3
Cc1ccsc1C(=O)N1CCCC(C)(C(=O)NS(=O)(=O)C2CC2)C1 (configuration not stated)	/	1.6%	0.9%	-0.7	/	/	/
O=S(=O)(c1ccc(F)cc1)N1CCN(C(=S)NC2CC2)CC1	/	0.5%	0.6%	1.0	-22.2	-7.2	/
CCOC(=O)c1c(C)[nH]c(C(=O)COC(=O)CNC(=O)c2ccccc2Cl)c1C	5.5%	1.3%	0.8%	-0.4	29.0	16.8	4.4
O=C(CCSCCC(=O)NN=Cc1ccc(F)cc1)NN=Cc1ccc(F)cc1	/	/	0.0%	-1.3	/	-5.7	/
CCc1c(C)nc(N2CCN(c3ccccc3F)CC2)[nH]c1=O	15.0%	-0.3%	3.0%	1.7	6.0	-3.7	-4.3
Cn1c2ccccc2c2nnc(SCCOc3ccccc3)nc21	/	5.2%	1.1%	0.5	/	/	/
CCOc1ccccc1NC(=O)CCNS(=O)(=O)c1ccc(NC(C)=O)cc1	12.7%	-0.2%	-0.5%	-0.6	2.4	17.3	2.9
CCC(C)NC(=O)Cn1c(=O)n(Cc2ccc(C(=O)NCc3ccccc3OC)cc2)c(=O)c2ccccc21 (configuration not stated)	/	-26.3%	1.1%	-0.1	/	-1.1	/
CC(=O)CC(C)(C)n1nnc(-c2ccccc2)n1	11.6%	-1.4%	-0.5%	-0.6	-8.1	-15.9	4.6
COc1ccc(CCNC(=O)CNCCc2ccc(F)cc2)cc1	-19.3%	0.0%	0.7%	1.4	5.0	-11.0	2.8
C#CCNC(=O)C1=C[C@@H](c2csc3ccccc23)C[C@@H](OCc2ccc(CO)cc2)O1	6.5%	0.2%	0.4%	-1.1	17.8	13.6	-0.4
CN(CCOc1ccccc1)Cc1ccccc1	/	4.8%	2.6%	-0.8	/	/	/
O=C(Nc1cc(F)ccc1F)C1CCN(S(=O)(=O)c2cccc3nonc23)CC1	-6.8%	/	-1.2%	0.3	-20.1	2.5	0.1
COc1ccccc1C(=O)NC(=O)COC(=O)Cn1cnc2c1c(=O)n(C)c(=O)n2C	/	/	1.2%	2.0	-11.4	-21.3	/
COCCCNC(=S)N/N=C/c1ccc(O)cc1	3.1%	-16.6%	0.0%	0.2	13.1	-6.6	5.7
CCN(CC)S(=O)(=O)c1cccc2nsnc12	-1.5%	0.5%	?	-0.4	0.1	-14.8	3.6
O=C(NCc1ccccc1F)c1ccncc1	2.7%	/	2.6%	0.0	4.8	1.0	-1.5
COc1ccc(S(=O)(=O)N2CCCC2CNC(=O)C(=O)NCc2ccco2)cc1 (configuration not stated)	/	1.1%	-0.1%	-0.5	?	13.9	/
CCN(CC)CCNC(=O)CS(=O)Cc1nc(-c2ccccc2Cl)oc1C (configuration not stated)	10.2%	-1.5%	4.2%[38.3 µM]	-0.7	1.1	0.0	-0.5
CCCCNc1c(-c2ccc(SC(C)CC)cc2)nc2cnccn12 (configuration not stated)	/	?	-0.8%	4.5	/	58.6	/
CCc1ccccc1N1CN(Cc2cccnc2)CNC1=S	-9.2%	2.9%	4.0%	-0.7	7.9	3.2	2.5
COCCn1c(=NC(=O)CSCC(=O)N2CCOCC2)sc2cc(C)ccc21	5.2%	-7.0%	0.5%	-0.3	6.8	1.4	/
COc1ccc(C(=O)Nc2ccc(S(=O)(=O)N3CCc4ccccc43)cc2)cc1	/	-2.6%	2.1%	0.2	/	12.7	/
Cc1ccc(C(=O)N(C)CC(=O)Nc2ccc(Cl)c(C(F)(F)F)c2)cc1S(=O)(=O)N1CCCCC1	/	-1.3%	?	0.3	6.7	30.0	/
CCOC(=O)N1CCN(S(=O)(=O)c2ccc(C(=O)Nc3sc4c(c3C(N)=O)CC(C)(C)NC4(C)C)cc2)CC1	-5.8%	-4.3%	0.3%	-0.1	-3.8	42.2	-4.3
C/C(=N\NC(=O)C1CCCN(S(=O)(=O)c2ccccc2)C1)c1ccncc1 (configuration not stated)	17.7%	0.2%	0.2%	0.6	5.9	0.8	2.4
Cc1cc(Nc2ccccc2C)nc(-n2nc(C)cc2C)n1	/	-0.3%	0.8%	-0.7	/	9.4	/
CC1=CC2=NCC(O)CN2C=C1 (configuration not stated)	14.4%	-15.9%	2.5%[38.3 µM]	-0.2	0.1	3.9	-2.3
CS(=O)(=O)Nc1ccc(N2CCCCC2)c(Cl)c1	-7.1%	-1.1%	-6.2%[38.3 µM]	-0.1	0.7	-11.6	3.8
CCOC(=O)c1ccc(P(=O)(c2ccccc2)c2ccccc2)cc1	2.5%	0.5%	0.6%	-1.6	-13.3	-4.6	-1.5
COC(=O)c1ccc(C)c(NC(=O)Cn2cnc3ccccc3c2=O)c1	7.5%	0.4%	0.8%[38.3 µM]	0.3	-4.2	21.7	0.1
Cn1c(=O)[nH]c(=O)c2c1nc(NCCCn1ccnc1)n2Cc1ccccc1	15.0%	-4.1%	0.0%	-0.4	-4.1	-8.6	-1.0
O=C(COC(=O)c1n[nH]c2ccccc12)NCc1ccccc1	14.7%	-27.4%	-4.2%	-0.4	25.3	0.2	1.6
C=CCNC(=O)/C(C#N)=C/c1ccc(C(=O)O)cc1	9.2%	0.7%	2.7%	-0.4	0.8	5.2	0.8
CCCCn1c2ccc(C)cc2c2nnc(SCCN3CCCCC3)nc21	1.8%	0.6%	?	2.6	-4.1	-15.0	5.6
COc1cccc(CN2CCN(CC(=O)Nc3ccccc3Cl)CC2)c1	10.1%	14.1µM*	1.6%	-0.5	4.8	3.0	5.0
COc1ccc(NC(=O)CSc2ncnc3c2cnn3Cc2ccccc2)cc1	17.8%	0.5%	15.8%	0.2	3.5	-4.4	-2.5
Cc1ccc2c3c(cccc13)-c1ccccc1C2=O	?	-2.1%	-0.4%	2.5	4.2	-5.6	2.0
COc1ccccc1C1CC(=O)Oc2c(C(C)C)ccc(C)c21 (configuration not stated)	0.3%	-2.2%	3.2%	4.4	/	0.5	-2.4[94.6 µM]
COc1ccc(C2(O)CCN(Cc3nnnn3Cc3ccc(F)cc3)CC2)cc1	6.2%	-7.2%	/	0.7	-3.3	1.2	-1.3
COc1ccc(C(CC(=O)O)NC(=O)Cc2ccccc2)cc1OC (configuration not stated)	21.3%	-4.2%	1.3%	0.6	8.4	-14.4	0.9
COc1ccccc1CNC(=O)CSc1ccc(-c2ccccn2)nn1	-5.9%	2.1%	0.6%	-0.4	-25.5	2.8	0.9
Cc1ccc(C(=O)CCC(=O)OCC(=O)Nc2ccccc2SCC#N)cc1	/	-0.7%	1.5%	2.8	12.9	-8.4	/
CC1CN(C2CCN(S(=O)(=O)c3ccccc3)CC2)CC(C)O1 (configuration not stated)	79.4µM*	-3.0%	4.9%[38.3 µM]	-0.8	-19.8	-2.2	0.7
CCc1cc(=O)oc2c(C)c(OCC(=O)NC3CC(C)(C)NC(C)(C)C3)ccc12	10.1%	4.2%	9.2%	-0.7	9.8	-5.8	/
Cc1ccc(C(=O)Nc2nc3ccccc3n3nnnc23)cc1	-12.3%	-1.0%	-4.2%[38.3 µM]	0.2	-3.5	1.5	2.9
CCOc1ccc(N2CC(C(=O)NCCc3c[nH]c4ccc(OC)cc34)CC2=O)cc1 (configuration not stated)	17.1%	/	-0.9%	-0.2	-2.0	9.0	-3.8
COc1ccc(C(=O)NCc2cccnc2)cc1C(=O)NCc1cccnc1	18.1%	0.8%	1.2%	-1.0	-7.9	2.0	-0.1

Bioassay records: PubChem, National Center for Advancing Translational Sciences (NCATS)
